PINK1 modulator – modulators of PINK1 expression; PINK1 immunofluorescence, high-content cytometry, 24 h; Potency, µM (top dose mostly 76.6 µM), without a hit: top-dose activation (PINK1 increase), actives largely listed as activators; 410,000 compounds, 0.2% hits; active = well fitted activation curve with a large enough effect; inconclusive = small, poorly fitted or top-dose-only effect; inactive = flat fitted curve, though single readings scatter; cell line not stated here;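 further: potency means the concentration at half of the fitted maximal effect; % of control where 0% means no effect; nearly all actives have a fitted effect of over 65% in size; a mitochondrial uncoupler was the plate control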
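Stable cell line, 250 cells/well, 12 h attachment; compounds pinned at 5 concentrations, 24 h; CCCP control. Fixed with nuclear dye, primary antibodies 12 h at 10 degrees C, secondary plus cell stain; laser-scanning cytometer read.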
D2 agonist – activates the human D2 dopamine receptor. DiscoveRx PathHunter D2 beta-arrestin, luminescence, 90 min; 100% = 57 uM dopamine signal. P14416. 360,000 compounds, 0.084% hits. activation, % (concentration not given with the values); in the data active = activation above about 40%; inconclusive = about 15% to 40%; inactive = below about 15%; further: the text of the record calls up to 30% inactive
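DiscoveRx PathHunter D2 beta-arrestin cells (2,100/well) attached overnight, then compound-stimulated 90 min at 37 C in HBSS/10 mM HEPES/0.1% Tween-20 buffer; beta-galactosidase complementation read by luminescence after 1 h at ambient temperature. Dopamine 57 uM final (EC100) as control.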
CtBP-E1A blk – inhibitors of CtBP/E1A interaction; 340,000 compounds, 0.49% hits; AID 651724; activity change, % (concentration not given with the values); AlphaScreen GST-E1A/His-CtBP binding, 1536-well; active compounds read low; control for the full effect not named in the record; in the data active means activity change below about -65%; inconclusive means about -30% to -65%; inactive means above about -30%; further: on the % scale 0 is the no-effect control and ±100 the full control effect
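In 5 uL wells, 23 nL compound meets equimolar GST-E1A and His-CtBP (5X stock 125 nM each) for 2 h, 37 °C. Beads (5X, 50 ug/mL) then 1 h, 37 °C, dark.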
TRPML1 ag – activates the human TRPML1 channel; Q9GZU1; TRPML1-expressing cells, Ca2+ dye fluorescence, FDSS; host cell line not named in the record; reference of the full effect not given here; activation, % (test concentration not listed); 410,000 compounds, 0.12% hits; AID 624414; in the data active = activation above about 50%; inconclusive = about 30% to 50%; inactive = below about 30%; further: 0% is about no effect; the text of the record puts the active cut at 80%
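Calcium fluorescence on an FDSS kinetic reader gave the read-out. Tet-induced TRPML1-DL cells were plated overnight, dye-loaded (Ca8 with quencher, 45-90 min, room temperature, dark), then read 110 s after compound addition, and again 110 s after 4uM final 54-4 (EC80).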
D2 PAM – potentiates the human D2 dopamine receptor allosterically; P14416; DiscoveRx D2 beta-arrestin cells, luminescence, 90 min; 100% = 57 uM dopamine signal; potentiation, % (test concentration not listed); 360,000 compounds, 0.23% hits; active = potentiation of 50% or more; inconclusive = 30% to 50%; inactive = 30% or less;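 further: compound concentration not given in the record; tested on top of an EC20 dose of dopamine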
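PathHunter D2 cells, attached overnight at 37 deg C, received compound in DMSO plus dopamine at EC20 (50 nM final) for 90 min at 37 deg C. Beta-arrestin recruitment was read as luminescence after 1 h with detection reagent at ambient temperature.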
Six1-Eya2 blk – blocks human Six1 binding to Eya2. Q15475+O00167. AlphaScreen GST-Six1/His-Eya2 binding, biochemical; active compounds read low; control for the full effect not named in the record. activity change, % (no concentration beside the values). 360,000 compounds, 0.56% hits; in the data active = activity change below about -65%; inconclusive = about -30% to -65%; inactive = above about -30%; further: on the % scale 0 is the no-effect control and ±100 the full control effect
Target sequence (O00167 whole entry, looked up): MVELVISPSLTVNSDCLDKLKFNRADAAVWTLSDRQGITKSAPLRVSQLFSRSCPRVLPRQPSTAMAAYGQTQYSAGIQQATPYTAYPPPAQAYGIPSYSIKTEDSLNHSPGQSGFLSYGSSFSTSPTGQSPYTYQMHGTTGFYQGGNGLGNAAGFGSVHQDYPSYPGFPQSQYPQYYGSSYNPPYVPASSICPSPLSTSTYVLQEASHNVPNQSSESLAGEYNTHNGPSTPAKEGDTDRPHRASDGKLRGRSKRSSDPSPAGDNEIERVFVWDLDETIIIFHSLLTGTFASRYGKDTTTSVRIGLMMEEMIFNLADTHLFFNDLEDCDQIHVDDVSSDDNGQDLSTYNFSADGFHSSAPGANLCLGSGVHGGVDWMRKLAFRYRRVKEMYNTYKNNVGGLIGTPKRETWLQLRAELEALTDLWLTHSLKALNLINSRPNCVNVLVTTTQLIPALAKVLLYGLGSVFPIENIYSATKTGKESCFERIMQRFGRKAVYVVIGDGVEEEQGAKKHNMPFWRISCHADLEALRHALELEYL
Target sequence (Q15475 whole entry, looked up): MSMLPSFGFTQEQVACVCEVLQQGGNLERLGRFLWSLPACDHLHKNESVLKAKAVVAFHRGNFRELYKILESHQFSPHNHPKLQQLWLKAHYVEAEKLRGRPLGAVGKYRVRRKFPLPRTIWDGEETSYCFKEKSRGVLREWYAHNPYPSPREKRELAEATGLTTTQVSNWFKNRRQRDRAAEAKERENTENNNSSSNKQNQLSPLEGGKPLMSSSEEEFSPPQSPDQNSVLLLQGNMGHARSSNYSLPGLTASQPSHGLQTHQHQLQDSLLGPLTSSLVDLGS
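AlphaScreen with GST-Six1 and His-Eya2 (5X mix: 250 nM and 500 nM), glutathione donor and nickel acceptor beads; buffer 50 mM Tris pH 8.0, 300 mM NaCl, 1 mM TCEP; 1 h at 37 C in the dark.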
The depositor's hits bear a star; ? = inconclusive; . = not tested or not shown; [ ] = another dose, or the depositor's remark.

Molecule | PINK1 modulator | D2 agonist | CtBP-E1A blk | TRPML1 ag | D2 PAM | Six1-Eya2 blk
CCOc1ccc(N2C(=O)CC(N3CCN(c4ccc([N+](=O)[O-])cc4)CC3)C2=O)cc1 (stereo not given) | 0.2% | -3.6 | . | -0.7 | 6 | -1
Cc1ccc(CN2CCN(c3ccccc3Cl)CC2)o1 | 4.7% | -0.8 | -2 | -0.7 | -19 | -14
COC(=O)c1ccc(NC(=O)C2CCCCC2C(=O)O)cc1 (stereo not given) | -1.0% | -2.9 | 10 | -0.2 | 6 | 0
O=C1CC(NCc2ccc3c(c2)OCO3)C(=O)N1Cc1ccc2c(c1)OCO2 (stereo not given) | -0.3% | -2.3 | 0 | 0.3 | -12 | 2
COc1ccc(OC)c(NC(=O)C(=O)c2cn(CC(=O)N3CCCC3)c3ccccc23)c1 | 0.1% | -1.9 | -6 | 1.0 | 16 | -2
Cc1cc(OCc2cn(CC(=O)c3ccc(O)cc3)nn2)ccc1[N+](=O)[O-] | 3.2% | -7.7 | -25 | -0.2 | -5 | -1
Cc1ccc(CN2C(=O)CC(Nc3ccc(N4CCOCC4)cc3)C2=O)cc1 (stereo not given) | 0.2% | -2.1 | . | -0.2 | 7 | -2
c1ccc(OCCCn2nnc(-c3ccc(N4CCOCC4)cc3)n2)cc1 | 9.0%[38.3 µM] | -1.4 | -15 | -0.3 | 2 | -2
CCOC(=O)N1CCc2c(sc(NC(=O)c3ccc(S(=O)(=O)N4CCCC4)cc3)c2C#N)C1 | 1.9% | 0.4 | -10 | 1.3 | 19 | 2
Cc1[nH]c2ccc3c(ncn3CCC#N)c2c1C | -1.3% | 1.6 | -10 | 0.0 | 5 | -4
O=C(CSc1ccc(Cl)cc1)Nc1ccc(C2SCCS2)cc1 | 10.0% | -5.1 | 0 | -0.4 | 4 | 19
COc1ccc(-c2c(C)c3ccc(O)cc3oc2=O)cc1OC | -0.1% | -0.5 | . | 0.7 | 2 | -3
O=C(Nc1ccc(N2CCOCC2)c(S(=O)(=O)Nc2ccc(Cl)cc2)c1)c1ccc(=O)[nH]n1 | 2.6% | -0.6 | -8 | -0.7 | -4 | -22
Cc1nc(SCC(=O)N2CCCCC2)c2c(C)c(C)sc2n1 | 4.4% | -1.4 | -2 | 0.1 | -3 | -16
COc1cc(-c2cc(NC=O)c3ncc(-c4ccccc4)n3c2)cc(OC)c1OC | -0.2% | -5.2 | 0 | -0.8 | -4 | -15
Cc1ccc(NC(=S)NC2CCCC2)c(C)c1 | 0.3% | 1.1 | -2 | -0.8 | -6 | -9
O=C(CN1CCN(c2cccc(Cl)c2)CC1)c1ccc(O)cc1O | 2.2% | -2.7 | . | 0.5 | -19 | -4
CCCCc1nc2sc3c(=O)[nH]c(=S)[nH]c3c2c2c1CCC2 | 3.8% | -1.7 | 7 | -0.4 | -7 | 3
CN(NS(=O)(=O)c1ccc(Cl)cc1)c1nc(C(F)(F)F)nc2ccccc12 | 5.9% | 3.4 | 2 | 0.9 | 1 | 4
COc1cc2nc(CN3CCN(S(=O)(=O)c4cc(C)ccc4C)CC3)[nH]c(=O)c2cc1OC | 5.1% | 2.0 | ? | 1.3 | -12 | ?
CC(=O)n1c(=O)oc2ccccc21 | -0.9% | -1.4 | 8 | 0.6 | 3 | 4
Cc1ccc(C(=O)OCC(=O)N2C(C)CCCC2C)s1 (stereo not given) | -2.6% | -0.7 | -17 | -0.1 | -3 | 9
O=C1NCC(Nc2ccccc2Cl)C(=O)N1 (stereo not given) | -0.9% | -1.0 | -2 | -0.5 | 2 | 9
Cc1cc(SCC(=O)NC2CCCC2)nc2ccccc12 | -3.6% | -5.3 | 7 | 1.5 | -3 | -3
O=C(COC(=O)Cc1ccsc1)NCC1CCCCC1 | -1.9% | -0.6 | 4 | 3.5 | 3 | 4
Cc1nc2ccc(NS(=O)(=O)c3ccc4c(c3)OCCO4)cc2s1 | -0.7% | 3.2 | 14 | 0.7 | 26 | -2
COc1cc(OC)c(C(=O)OCC(=O)c2ccc3c(c2)NC(=O)CO3)cc1OC | -1.1% | -2.1 | -4 | 0.0 | -1 | -1
CC(Sc1nc(-c2ccc(F)cc2)cs1)C(=O)N1c2ccccc2CC1C (stereo not given) | 1.2% | 1.8 | -13 | 0.2 | -7 | 5
COc1ccc(OC)c(NC(=O)CSc2nnc(-c3ccco3)o2)c1 | -0.8% | 0.3 | 1 | 0.5 | 4 | 9
Cc1cccc(N(C(=O)c2nsc(Cl)c2Cl)C(C(=O)NC2CCCC2)c2ccc(O)cc2)c1 (stereo not given) | -0.9% | -4.5 | 4 | -0.1 | -8 | -10
COc1cc(/C=C2/CC/C(=C/c3ccc(O)c(OC)c3)C2=O)ccc1O | 3.3% | -5.1 | -3 | . | -9 | -6
Cc1cc(C)nc(SCC(=O)c2ccc(Cl)cc2)n1 | 1.2% | -0.4 | 7 | -1.3 | -9 | 4
Cc1ccc(NC(=O)CSc2nnc(C)n2-c2ccccc2)cc1 | -1.3% | -1.9 | 3 | -0.2 | -28 | -3
Cc1cc(C)cc(N(C(C)C(=O)N2CCCC2)S(C)(=O)=O)c1 (stereo not given) | -1.1% | -9.1 | 4 | -0.2 | -4 | 13
COc1ccc(C(=S)N2CCN(S(=O)(=O)c3ccccc3)CC2)cc1 | -0.6% | 0.0 | . | 2.5 | -2 | -8
COc1cc(NC(=O)CNC(=O)Cn2cnc3sc(C)c(C)c3c2=O)cc(OC)c1OC | 0.8% | -5.6 | 2 | -0.7 | 1 | -13
COCCNC(=O)C(c1ccc(F)cc1)N(Cc1ccccc1)C(=O)CCC(=O)Nc1ccccn1 (stereo not given) | 0.7% | -2.1 | 5 | 1.0 | -2 | -3
COc1ccc(NCC(=O)N/N=C/C(C)c2ccccc2)cc1 (stereo not given) | 0.0% | -8.7 | 1 | -0.3 | 3 | -8
COc1ccc(C(=O)Nc2ncccc2C)cc1S(=O)(=O)N1CCCc2ccccc21 | 1.6% | -8.6 | 0 | -0.9 | -21 | 0
CC1(C)Cc2nc3[nH]c(=S)[nH]c(=O)c3cc2CO1 | 1.6% | 9.4 | 3 | 0.8 | -3 | 6
O=C1/C(=C\c2cccc(O)c2O)SC(=S)N1Cc1ccccc1 | ? | 2.8 | ? | 0.2 | -5 | ?
NC(=O)CN1CCOCCN(CC(N)=O)CCOCC1 | ? | -0.6 | 8 | 0.4 | -9 | 7
O=C1CCCN1C(=O)CSc1ccc2ccccc2n1 | 4.1% | -0.6 | 7 | 0.1 | 26 | 3
COCCn1c(=NC(=O)CSCC(=O)N2CCOCC2)sc2ccccc21 | 0.5% | -2.7 | 0 | 0.4 | -7 | -1
Cc1noc(C)c1COc1ccccc1C(=O)NC(C)CCc1ccccc1 (stereo not given) | 5.1% | 1.0 | -5 | 3.2 | 3 | -7
O=c1[nH]c2cc3c(cc2cc1C(c1nnnn1Cc1ccccc1)N1CCCCCC1)OCCO3 (stereo not given) | -1.4% | -2.0 | -1 | -0.4 | 8 | -1
C[C@@H]1CC=C[C@@H]2[C@H]1C(=O)N(Cc1ccccc1)[C@H]2c1cccc(Br)c1 | 2.5% | -3.9 | 0 | -0.4 | -6 | 0
CCOC1=C2[C@H]([C@H]3C(=O)N(c4ccccc4)C(=O)[C@H]3C1)[C@@H](c1ccccc1)N(S(=O)(=O)c1ccc(C)cc1)[C@H]2c1ccccc1 | 4.8% | -3.0 | -1 | -0.2 | 0 | -3
O=C(COC(=O)C1CC(=O)N(Cc2ccco2)C1)Nc1nc(-c2ccc(F)cc2)cs1 (stereo not given) | -1.4% | -2.3 | -8 | -0.6 | 1 | -4
CCOc1ccccc1OCCCC(=O)NC1=NCCS1 | -0.7% | -0.8 | -3 | 0.0 | -11 | -3
CCc1cccc(NC(=O)c2ccc(Cn3c(=O)[nH]c4ccsc4c3=O)cc2)c1 | 6.6% | -4.6 | -2 | 0.3 | -5 | -2
CCCc1nc2ccccc2c(C(=O)N(CC)CC(=O)NCc2cccs2)c1CC | -1.9% | -3.1 | 1 | 1.7 | -4 | 5
COc1cccc(-c2nc(CS(=O)CC(=O)NCCCOC(C)C)c(C)o2)c1 (stereo not given) | -2.0% | -2.3 | 4 | 0.6 | -9 | -1
Cc1ccc(SCC(=O)N2CCC(C(N)=O)CC2)cc1 | -0.7% | -2.0 | -1 | -0.2 | -10 | -2
Cc1nc(NCC2CCCO2)c2oc3ccccc3c2n1 (stereo not given) | 7.4%[38.3 µM] | 0.0 | -1 | 1.0 | 1 | 0
COc1cccc(-c2csc(N3CCN(C(=S)Nc4ccccc4OC)CC3)n2)c1 | . | -3.1 | 6 | 1.5 | 6 | -17

Additional results
Molecule | PINK1 modulator | D2 agonist | CtBP-E1A blk | TRPML1 ag | D2 PAM | Six1-Eya2 blk
CCOC(=O)c1ccc(NC(=O)N2CCc3ccccc32)cc1 | ? | 3.1 | 7 | 1.9 | -7 | 2
COc1cc(NC(=O)CN2CCN(c3ccccc3)CC2)c(C)cc1[N+](=O)[O-] | 4.6% | 0.5 | 8 | -0.3 | -6 | 3
COc1ccccc1CNC(=O)c1cccc2c1C(=O)N(Cc1cccnc1)C2 | -1.2% | -5.9 | 1 | 2.0 | -1 | -3
COc1ccc(NC(=O)C(NC(C)=O)C(=O)NCc2ccccc2OC)cc1 (stereo not given) | 0.1% | -1.2 | 5 | -0.8 | -3 | -2
CC(=O)c1cccc(-c2ccnc3c2CC(C(=O)NCc2ccco2)O3)c1 (stereo not given) | 3.5% | -3.5 | -4 | -0.1 | -13 | -2
COc1cccc(CNC(=O)C(=O)N2CCC3(CC2)OCCN3S(=O)(=O)c2ccc(C)cc2)c1 | 1.6% | 3.8 | 2 | 0.1 | 4 | 0
O=C(CS(=O)(=O)c1cn(Cc2ccc(Cl)cc2)c2ccccc12)N1CCCC1 | 0.2% | -3.6 | 1 | 0.0 | -3 | 0
C=CCC(NCc1ccccc1)c1ccccc1 (stereo not given) | 9.6% | -1.1 | 1 | 1.1 | -6 | 40
O=C1c2ccccc2[C@@H]2C[C@@H](O)[C@H](Nc3cccc4ccccc34)CCN12 | 0.5% | 6.4 | -12 | -0.1 | . | -9
Cc1cc(C(C)(C)C)cc(C)c1CCNC(=O)c1ccc[n+]([O-])c1 | 0.1% | -3.9 | -1 | 0.9 | 1 | 4
COC(=O)CNS(=O)(=O)c1ccc(Cc2ccc(S(=O)(=O)NCC(=O)OC)cc2)cc1 | -0.1%[38.3 µM] | 0.0 | 5 | 2.5 | 1 | 3

6 records drawn at random from the list so far, as already listed:
Molecule | PINK1 modulator | D2 agonist | CtBP-E1A blk | TRPML1 ag | D2 PAM | Six1-Eya2 blk
COc1ccccc1CNC(=O)c1cccc2c1C(=O)N(Cc1cccnc1)C2 | -1.2% | -5.9 | 1 | 2.0 | -1 | -3
CCOC(=O)c1ccc(NC(=O)N2CCc3ccccc32)cc1 | ? | 3.1 | 7 | 1.9 | -7 | 2
Cc1cc(C(C)(C)C)cc(C)c1CCNC(=O)c1ccc[n+]([O-])c1 | 0.1% | -3.9 | -1 | 0.9 | 1 | 4
O=C1c2ccccc2[C@@H]2C[C@@H](O)[C@H](Nc3cccc4ccccc34)CCN12 | 0.5% | 6.4 | -12 | -0.1 | . | -9
C=CCC(NCc1ccccc1)c1ccccc1 (stereo not given) | 9.6% | -1.1 | 1 | 1.1 | -6 | 40
COc1cc(NC(=O)CN2CCN(c3ccccc3)CC2)c(C)cc1[N+](=O)[O-] | 4.6% | 0.5 | 8 | -0.3 | -6 | 3

Compound activity as filed in PubChem BioAssay.
